# AF4-AF9 inh – inhibitors of human MLL-AF4/AF9 interaction; P42568; 0.47% of 350,000 active; inhibition, % at 10 µM; AlphaScreen, biotin-AF4 peptide binding to FLAG-AF9;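 active = every replicate reaching a set inhibition limit, whatever the replicate mean, cut at about 25% in these data; inconclusive = mean inhibition reaches that limit but some replicates miss it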;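 note: 0% = plate neutral control median and 100% = total signal loss; the record names both 10 and 1 µM as test concentration; the first replicate is given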
# Target sequence (P42568 whole entry, looked up): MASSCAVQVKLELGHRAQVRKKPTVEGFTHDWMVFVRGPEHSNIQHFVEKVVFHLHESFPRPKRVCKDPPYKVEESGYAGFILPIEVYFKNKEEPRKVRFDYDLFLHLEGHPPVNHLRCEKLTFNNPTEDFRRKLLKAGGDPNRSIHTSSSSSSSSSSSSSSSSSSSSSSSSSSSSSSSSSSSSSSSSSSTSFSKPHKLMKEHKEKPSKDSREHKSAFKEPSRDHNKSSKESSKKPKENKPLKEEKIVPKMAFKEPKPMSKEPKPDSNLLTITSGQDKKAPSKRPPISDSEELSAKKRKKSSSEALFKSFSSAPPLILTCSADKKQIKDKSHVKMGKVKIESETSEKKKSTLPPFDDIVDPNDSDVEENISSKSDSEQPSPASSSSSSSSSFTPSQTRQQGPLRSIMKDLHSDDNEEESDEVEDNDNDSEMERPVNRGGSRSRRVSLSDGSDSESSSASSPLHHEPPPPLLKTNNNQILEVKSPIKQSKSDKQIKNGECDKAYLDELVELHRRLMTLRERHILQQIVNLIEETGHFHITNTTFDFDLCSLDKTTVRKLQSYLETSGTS
# FGF22 binding – FGF22 (human) thermal shift binding | Q9HCT0 | calls only at 9.99 µM | 1.5% of 340,000 active | recombinant FGF22 thermal shift, SYPRO orange fluorescence; percent of sucrose octasulfate shift, DMSO zero;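 active = melting point raised past a set limit in the mean and every replicate; inconclusive = no clear call; three in four hits are not shown here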
# Target sequence (Q9HCT0 whole entry, looked up): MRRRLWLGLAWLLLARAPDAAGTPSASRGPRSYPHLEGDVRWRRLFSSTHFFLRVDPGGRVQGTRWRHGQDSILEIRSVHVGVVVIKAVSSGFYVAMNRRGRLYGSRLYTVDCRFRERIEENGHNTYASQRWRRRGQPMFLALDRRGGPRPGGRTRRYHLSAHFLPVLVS
# Ecoli growth – inhibitors of Escherichia coli growth; 0.21% of 330,000 active; OD600, 23 h; hits give low values; AID 1053175; OD600 absorbance (no concentration beside the values);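 active = OD600 absorbance below the run mean of sample wells minus 3.6 SD, in any replicate, cut at about 0.56 in these data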;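 note: stock transfer was 300 nL into about 60 µL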
# UCH37 DUB inh – human UCH37 deubiquitinating enzyme inhibition. purified proteasome/UCH37, Ub-AMC cleavage fluorescence. inhibition, % (test concentration not listed). 0.33% of 330,000 active. Q9Y5K5;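 active = mean of two replicates above 20%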;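 note: 0% = compound-free wells with enzyme and 100% = wells lacking proteasome; stock transfer was 100 nL into about 20 µL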
# Target sequence (Q9Y5K5 whole entry, looked up): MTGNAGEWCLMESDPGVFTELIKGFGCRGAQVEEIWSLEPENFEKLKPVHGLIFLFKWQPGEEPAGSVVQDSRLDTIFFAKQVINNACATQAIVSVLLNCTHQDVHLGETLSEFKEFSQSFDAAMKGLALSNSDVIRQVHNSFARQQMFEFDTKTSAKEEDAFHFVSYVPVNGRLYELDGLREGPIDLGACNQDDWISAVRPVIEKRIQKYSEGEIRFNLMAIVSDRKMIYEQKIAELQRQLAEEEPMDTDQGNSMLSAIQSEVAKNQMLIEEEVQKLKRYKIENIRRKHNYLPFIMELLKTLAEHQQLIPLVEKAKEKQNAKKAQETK
#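 Schedule: 30 min plus 25 min, room temperature / Material: human UCH37 within purified proteasomes / Technique: AMC fluorescence intensity at 355/460 nm / Buffer or medium: pH 7.4 Tris-HCl (50 mM) with ovalbumin, ATP-MgCl2, DTT / Controls: wells without proteasome as full block, compound-free enzyme plus substrate as uninhibited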
# RanGTP-Imp inh – disruptors of Ran-importin-beta complex formation – biochemical, FRET, CFP-Ran, YFP-importin-beta, homogeneous, primary screen. cell-free CFP-Ran/YFP-importin-beta FRET ratio. inhibition, % (concentration not given with the values). 1.1% of 300,000 active;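 active = most replicates above 15%; inconclusive = exactly half above 15%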;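 note: 0% = DMSO wells and 100% = Ran loaded with GDP instead of GTP; wells of about 40 µL received 100 nL stock; the first replicate is given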
# Vif TR-FRET – inhibitors of Vif binding to APOBEC3G peptide, primary screen, biochemical, TR-FRET, GST-Vif 1-94, biotin-A3G peptide, dose response retest (AID 1117319). TR-FRET GST-Vif / biotin-A3G peptide binding; higher % means a stronger effect; test concentration not given here; strong numbers were not always called active. one-dose inhibition, %; IC50 in µM for titrated hits. 0.57% of 260,000 active;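 active = above the screen mean plus three standard deviations and confirmed in dose response; inconclusive = results disagree or hit not tested in dose response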;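 note: Vif residues 1-94 fused to GST binding biotinylated APOBEC3G peptide 110-148; 0% = full assay without inhibitor and 100% = GST in place of GST-Vif; retest series ran down from 100 µM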
# HNF4A DNA FP – change in binding of human HNF4 alpha to DNA; P41235; HNF4a-FITC DNA binding, fluorescence polarization, 1 h; activity change, % at 10 µM; 0.3% of 360,000 active; AID 1224865; in the data active = activity change above about 30%, passing the limit was not always enough;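 note: controls were the assay level and a saturating level of protein; the project sought stronger binding though the title names inhibitors; some compounds called inactive have numbers as strong as hits; positive values seem to mean higher polarization but the record does not say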
# * marks the source's active call; other numbers are inactive results; i = inactive; u = inconclusive; x = not tested or not shown; & = joins results of further samples.
SMILES,AF4-AF9 inh,FGF22 binding,Ecoli growth,UCH37 DUB inh,RanGTP-Imp inh,Vif TR-FRET,HNF4A DNA FP
CCOC(=O)C(NC(=O)C1CCCN1C(=O)OCc1ccccc1)C(=O)OCC (stereo not given),x,x,0.74,2.0,0.3,25%,-2.5
COc1ccccc1Nc1nc(N)nc(CSC(=S)N2CCCCC2)n1,-23,i,0.67,1.7,2.9,-3%,-0.6
COCCOCCn1c(CCCO)nc2ccccc21,x,x,0.74,0.9,-0.1,2%,-0.4
CCOc1cc(C(=S)N2CCCCC2)ccc1OS(=O)(=O)c1ccc(Br)cc1,x,x,0.71,2.1,-0.2,0%,-1.9
Cc1cc(C(=O)N2CCCC(C)(C(=O)NS(=O)(=O)C3CC3)C2)n(C(C)(C)C)n1 (stereo not given),0.3,i,x,x,x,x,1.9
C/C(=N/NC(=O)CCc1ccccc1)c1ccco1,-0.6,i,x,x,0.1,10%,0.9
CCCCC[C@H](O)/C=C/[C@H]1CCC(=O)[C@@H]1CCCCCCC(=O)N1CCCCC1CO (stereo not given in full),-0.5,i,0.66,-0.2,3.8,-10%,-0.6
CC(=O)c1ccc(N2C(=O)CC(N3CCN(S(=O)(=O)c4ccc(C)c(C)c4)CC3)C2=O)cc1 (stereo not given),0.6,i,0.65,1.9,x,x,-4.0
O=C(COC(=O)CC1SC(N2CCCC2)=NC1=O)Nc1ccc(Br)cc1 (stereo not given),-1.2,i,0.7,5.8,x,3%,2.7
Cc1ccc(NC(=O)CNC(=O)c2cccs2)cc1S(=O)(=O)Nc1ccc(Cl)cc1,2.5,i,0.64,-1.6,u,9%,2.3
Cc1sc2ncnc(SCC(=O)N3CCCCC3)c2c1C,6.0,i,0.7,2.0,1.0,x,-1.2
Cc1cc(C(=O)CSc2nnc(-c3ccc(Cl)cc3)n2CC2CCCO2)c(C)n1C (stereo not given),x,x,0.65,0.8,-1.0,-3%&14%,-1.8
COc1cccc(/C=C2\SC(=S)N(N3CCOCC3)C2=O)c1OC,x,x,0.71,2.1,0.7,12%,-1.7
Cc1ccc(NC(=O)N2CCCN(Cc3ccc(F)cc3)C2)cc1C,x,x,0.67,1.3,0.9,0%,2.5
Clc1cccc(N2CCN(Cc3nnc(-c4ccccc4)o3)CC2)c1,4.1,i,0.66,1.0,3.2,u,0.1
O=C(CS(=O)(=O)Nc1ccc(F)cc1Cl)Nc1ccc(F)cc1Cl,-2.4,i,0.64,2.6,6.6,5%,-0.5
O=C(Cn1nnc(-c2ccccc2NC(=O)c2ccccc2)n1)Nc1ccc2c(c1)OCCO2,x,x,0.72,-46,-3.3,-14%,1.9
Nc1nc(NCCO)nc(NCC2CCCO2)c1[N+](=O)[O-] (stereo not given),4.8,i,0.67,17,1.2,1%,3.1
CCn1c(C(=O)O)c(CC(=O)NC2CCCCCC2)c2ccccc21,-3.9,i,0.71,3.8,0.5,-7%,0.3
CCn1cc(CNC(=O)CSc2nc(-c3ccc(OC)c(OC)c3)cc(C(F)(F)F)n2)c(C)n1,2.7,i,0.7,-126,2.4,7%,0.1
Cc1occc1C(=O)NNC(=O)c1ccc(Br)o1,0.9,x,0.65,1.3,-2.0,25%,0.0
O=C(CNc1cccc(S(=O)(=O)N2CCCCC2)c1)Nc1ccc(C(F)(F)F)cc1,-4.9,i,x,x,x,1%,-4.5
COc1cc([N+](=O)[O-])ccc1NC(=O)C1C2C=CC(C2)C1C(=O)O (stereo not given),-0.7,i,0.71,10,-3.6,x,-2.3
CC(C)(C)c1cc(C(=S)N2CCN(CCO)CC2)cc(C(C)(C)C)c1O,x,x,0.66,6.3,u,-5%,-1.7
Cc1ccc(S(=O)(=O)NC(CC(C)C)C(=O)N2CCOCCOCCOCCOCC2)cc1 (stereo not given),-1.7,i,0.63,2.5,-5.2,x,-4.6

# Entries of single compounds, quoted from the list. Screens in order: AF4-AF9 inh, FGF22 binding, Ecoli growth, UCH37 DUB inh, RanGTP-Imp inh, Vif TR-FRET, HNF4A DNA FP
# O=C(Cn1nnc(-c2ccccc2NC(=O)c2ccccc2)n1)Nc1ccc2c(c1)OCCO2 as listed: x, x, 0.72, -46, -3.3, -14%, 1.9
# Cc1ccc(NC(=O)N2CCCN(Cc3ccc(F)cc3)C2)cc1C as listed: x, x, 0.67, 1.3, 0.9, 0%, 2.5

# (continued)
SMILES,AF4-AF9 inh,FGF22 binding,Ecoli growth,UCH37 DUB inh,RanGTP-Imp inh,Vif TR-FRET,HNF4A DNA FP
CCCn1cc(C(=O)N(C)C2CCCN(Cc3ccccc3F)C2)c(C)n1 (stereo not given),-1.9,i,0.69,0.5,0.4,3%,0.7
Cc1[nH]c(=S)c(C#N)c(C)c1CCC#N,x,i,0.65,8.7,0.9,-12%,1.1
CCCCOC(=O)c1ccc(NC(=S)N2CCN(c3ncc4c(=O)c(C(=O)O)cn(CC)c4n3)CC2)cc1,2.3,i,0.65,-6.9,0.8,-15%,0.1
COc1ccc(Cc2nnc(SCc3nc4ccccc4c(=O)[nH]3)o2)cc1,-2.4,i,0.72,1.4,7.5,9%,1.6
CCC(C)C(=O)Nc1nc(-c2ccc3c(c2)NC(=O)CO3)cs1 (stereo not given),x,x,0.72,2.3,1.0,5%,1.9
O=C(Nn1cnc2ccccc2c1=O)c1ccc([N+](=O)[O-])cc1,0.1,i,0.69,5.5,4.2,-8%,0.2
O=C(CCSc1ccc(Cl)cc1)N1CCN(c2ccc(O)cc2)CC1,3.4,i,x,x,4.7,7%,5.0
Cc1ccc(/C=N/NC(=O)c2nnn(-c3nonc3N)c2-c2cccs2)cc1,-5.0,i,x,x,189*,x,2.6
CCCCCCCC(=O)OCC(COC(=O)CCCCCCC)OC(=O)CCCCCCC,x,i,0.65,3.7,x,x,-0.1
Cc1nc(N2CCN(S(=O)(=O)c3ccccc3C#N)CC2)c2c(-c3ccccc3)csc2n1,0.3,i,0.7,0.9,x,-201%,3.9
O=C(Cc1ccccc1)NCC(=O)N1CCN(c2ccc(F)cc2)CC1,3.6,x,x,x,x,-3%,0.3
Cc1nc(N2CCN(C(=O)c3ccco3)CC2)c2oc3ccccc3c2n1,x,x,0.71,-0.1,-1.6,-5%,-1.4
COc1ccc(-n2nnnc2SCC(=O)Nc2ccccc2N2CCOCC2)cc1OC,-3.8,i,0.69,0.4,-2.0,x,1.5
COc1cc2c(cc1OC)C(c1ccccc1[N+](=O)[O-])=NCC2,0.9,i,x,x,x,x,0.3
Cc1ccc(C(=O)Nc2ccccc2C(=O)N2CC(C)OC(C)C2)cc1 (stereo not given),-5.4,i,x,x,x,3%,0.2
CN1CCN(c2nc(-c3ccccc3O)nc3ccccc23)CC1,0.4,i,0.6,8.0,5.2,-147%,-4.9
Cc1ccccc1OCC(=O)Nc1ccc2c(c1)COC2=O,x,x,0.65,2.3,4.4,8%,0.9
CC1(C)C(=O)Nc2ccccc2N1C(=O)COC(=O)c1cc(S(C)(=O)=O)ccc1Cl,-21,i,0.66,2.0,x,-5%,2.0
CCO[C@@H]1OC(C(=O)NC2CC2)=C[C@H](C2CC2)[C@H]1CCCO,-3.9,i,x,-0.2,30*,1%,-0.8
Cc1ccc(C2(C)NC(=O)N(CC(=O)NNC(=O)c3ccccc3)C2=O)cc1 (stereo not given),-0.4,i,0.71,0.7,x,-14%,-1.4
CCc1ccc2[nH]c3nc(SCc4nnc(-c5ccc(C)cc5)o4)nnc3c2c1,x,x,0.72,5.9,-1.7,4%,-2.2
NS(=O)(=O)c1ccc2c(c1)C1C=CCC1C(C1CC=CCC1)N2 (stereo not given),x,x,0.72,5.7,7.1,3.4µM*,-16
CC(C)Nc1nc(NC(C)C)nc(N(C)N)n1,x,x,0.64,3.4,0.0,-1%,-2.1
COc1cccc(-c2nc(CS(=O)(=O)CC(=O)N3CCc4ccccc4C3)c(C)o2)c1,-1.4,i,0.67,1.5,3.0,0%&-6%,4.4
CC(=O)Nc1ccc(CN2CCC(n3nccc3NC(=O)CCc3ccccc3)CC2)cc1,6.4,x,0.67,-0.7,0.1,x,-0.8

# Part of the list above in another layout.
AF4-AF9 inh	FGF22 binding	Ecoli growth	UCH37 DUB inh	RanGTP-Imp inh	Vif TR-FRET	HNF4A DNA FP	compound
-5.0	i	x	x	189*	x	2.6	Cc1ccc(/C=N/NC(=O)c2nnn(-c3nonc3N)c2-c2cccs2)cc1
3.4	i	x	x	4.7	7%	5.0	O=C(CCSc1ccc(Cl)cc1)N1CCN(c2ccc(O)cc2)CC1
x	i	0.65	8.7	0.9	-12%	1.1	Cc1[nH]c(=S)c(C#N)c(C)c1CCC#N

# More compounds follow:
SMILES,AF4-AF9 inh,FGF22 binding,Ecoli growth,UCH37 DUB inh,RanGTP-Imp inh,Vif TR-FRET,HNF4A DNA FP
CC(C)CC(=O)NC(=S)Nc1sc2c(c1C(N)=O)CCC2,-5.9,i,0.73,-3.9,7.3,-77%,-0.2
COc1ccc(OCC(=O)OC2CCN(C)CC2)cc1,x,x,0.71,4.5,-2.4,-2%,-0.1
COc1ccc(C(=O)Nc2ccc3c(c2)OCO3)cc1S(=O)(=O)N1CCOCC1,1.1,i,x,x,x,-1%,1.1
COC(=O)c1cc(-c2ccc(OC)c(OC)c2)on1,-2.9,x,0.7,5.6,-2.4,8%,-0.1
CC(=O)Nc1ccc(NC(=O)Nc2ccc(C)c(C)c2)cc1,-3.4,i,0.72,3.1,-1.1,-6%,0.7
COc1cccc(/C=N/n2c(C3CCCCC3)n[nH]c2=S)c1,-1.4,i,x,x,-1.7,-10%,1.9
C/C=C/C(=O)NCCc1ccc(OC)c(OC)c1,0.1,i,0.69,0.1,-1.3,14%,-2.2
C[C@H](NC(=O)c1ccccc1)C(=O)N1CCN(c2ccccc2)CC1,-0.7,i,0.66,5.4,1.7,x,-0.9
COc1ccccc1NS(=O)(=O)c1cccc(C(=O)N2CCCCCCC2)c1,3.1,x,x,x,-2.6,x,-0.1
CCCCOC(=O)c1ccc(N2C(=O)CC(N3CCN(C/C=C/c4ccccc4)CC3)C2=O)cc1 (stereo not given),x,x,0.65,1.6,-0.3,-2%,0.8
O=C(Nc1cccc2c1CCCC2)c1cc(C2CCCCN2S(=O)(=O)c2cccs2)on1 (stereo not given),0.0,i,x,x,x,x,-3.0
O=C(Cc1nc(=O)c2ccccc2s1)Nc1ccccc1,x,x,0.7,-3.7,2.0,11%,-0.5
COc1ccc(-c2ncccc2O)cc1,x,x,0.72,-14,-2.1,8%,2.2
COc1ccccc1CNC(=O)C1CCN(S(=O)(=O)c2ccc3c(c2)CC(C)N3C(C)=O)CC1 (stereo not given),-0.1,i,0.62,-0.3,6.4,4%,1.9
CC1(c2ccc3ccccc3c2)CCC(=O)O1 (stereo not given),-2.6,i,x,x,x,29%,1.0
CC1=C(C(=O)OCc2ccc3c(c2)OCO3)C(c2cccc([N+](=O)[O-])c2)NC(=O)N1 (stereo not given),-1.2,i,0.69,1.3,0.7,x,-0.7
CC1(C)CC(=O)CC2(C1)NCC(c1ccccc1Cl)c1c2[nH]c2ccccc12 (stereo not given),4.1,i,0.73,1.9,1.6,7%,-0.1
Cc1noc(C)c1S(=O)(=O)Nc1ccc(C(=O)NCc2ccccc2)cc1,x,x,0.73,4.4,2.3,-4%,0.9
CCC[N+]1(CC#CCC(c2ccccc2)c2ccccc2)CCCCC1,2.3,i,0.69,8.1,-1.6,-6%,2.3
Cc1cccc(C)c1-n1nnnc1C(c1ccnc2ccccc12)N1CCN(C/C=C/c2ccccc2)CC1 (stereo not given),6.8,i,x,x,x,x,-3.0
COc1ccc(/C=C/C(=O)O)cc1S(=O)(=O)NCc1ccco1,-7.1,i,0.7,1.8,-1.0,14%,-12

# Bioassay records from PubChem BioAssay.

# The list is partial, so the mix of outcomes need not match the whole.
